CtBP-E1A blk = blocks the CtBP interaction with E1A; hit rate 0.49% among 340,000; AID 651724; AlphaScreen GST-E1A/His-CtBP binding, 1536-well; active compounds read low; control for the full effect not named in the record; activity change, % (concentration not given with the values); in the data active means activity change below about -65%; inconclusive means about -30% to -65%; inactive means above about -30%; also: % is scaled to controls: 0 for no effect and ±100 for the full control effect
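Protein mix (5X: 125 nM each GST-E1A, His-CtBP) was incubated with pinned compound 2 h at 37 deg C in dark, in 50 mM Tris pH 8.0 buffer with 300 mM NaCl. Glutathione donor and nickel acceptor beads followed; AlphaScreen signal read after 1 h.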
Six1-Eya2 blk = Six1/Eya2 interaction inhibition | Q15475+O00167 | AlphaScreen GST-Six1/His-Eya2 binding, biochemical; active compounds read low; control for the full effect not named in the record | activity change, % (test concentration not listed) | hit rate 0.56% among 360,000 | AID 651725; in the data active = activity change below about -65%; inconclusive = about -30% to -65%; inactive = above about -30%; also: % is scaled to controls: 0 for no effect and ±100 for the full control effect
Target sequence (O00167 whole entry, looked up): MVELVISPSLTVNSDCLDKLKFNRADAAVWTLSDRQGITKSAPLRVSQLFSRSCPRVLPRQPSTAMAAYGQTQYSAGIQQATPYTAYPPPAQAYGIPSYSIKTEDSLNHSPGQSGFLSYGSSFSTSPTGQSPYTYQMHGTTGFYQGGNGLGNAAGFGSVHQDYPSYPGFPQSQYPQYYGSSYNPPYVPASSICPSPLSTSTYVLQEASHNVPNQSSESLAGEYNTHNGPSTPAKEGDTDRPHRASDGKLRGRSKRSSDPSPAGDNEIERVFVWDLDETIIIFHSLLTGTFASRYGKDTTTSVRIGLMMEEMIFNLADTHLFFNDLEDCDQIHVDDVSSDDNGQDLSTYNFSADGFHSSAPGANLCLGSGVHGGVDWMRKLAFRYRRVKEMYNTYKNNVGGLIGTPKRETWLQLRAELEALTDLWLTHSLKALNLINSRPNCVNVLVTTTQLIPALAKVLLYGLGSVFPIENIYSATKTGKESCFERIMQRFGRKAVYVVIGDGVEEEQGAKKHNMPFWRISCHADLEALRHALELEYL
Target sequence (Q15475 whole entry, looked up): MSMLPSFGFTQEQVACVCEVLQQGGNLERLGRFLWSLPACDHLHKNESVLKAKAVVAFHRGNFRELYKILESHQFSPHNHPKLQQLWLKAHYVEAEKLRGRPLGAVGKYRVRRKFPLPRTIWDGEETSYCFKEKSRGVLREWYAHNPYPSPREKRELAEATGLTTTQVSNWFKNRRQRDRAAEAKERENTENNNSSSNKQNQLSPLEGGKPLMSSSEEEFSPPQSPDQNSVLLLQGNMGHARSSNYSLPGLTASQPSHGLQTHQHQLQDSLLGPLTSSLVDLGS
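AlphaScreen luminescence read after one hour at 37 °C in darkness. Pin-transferred compounds met GST-Six1 and His-Eya2 protein (5X stock 250 nM/500 nM) plus glutathione donor and Ni-chelate acceptor beads (5X, 50 ug/mL).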
TRPML1 inh = inhibitors of human TRPML1 channel. hit rate 0.02% among 390,000. AID 624415. Q9GZU1. activity change, negative = inhibition, % (no concentration beside the values). TRPML1-inducible cells, Ca2+ dye fluorescence, FDSS; active compounds read low; inhibition of EC80 agonist-evoked calcium signal; in the data active means activity change below about -50%; inconclusive means about -30% to -50%; inactive means above about -30%;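 also: stimulus is agonist 54-4 at its EC80 concentration; % is scaled to controls: 0 for no effect and ±100 for the full control effect; compound concentration not given in the record; the text of the record puts the active cut at -80%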
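Tet-induced TRPML1-DL cells loaded with Ca8 no-wash calcium dye were read kinetically on FDSS. Compound addition was followed by EC80 agonist 54-4 (4 uM final); inhibition was read over 110 s.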
D2 ag = agonists of human D2 dopamine receptor (beta-arrestin). DiscoveRx PathHunter D2 beta-arrestin, luminescence, 90 min; 100% = 57 uM dopamine signal. activation, % (no concentration beside the values). hit rate 0.084% among 360,000. AID 624465; in the data active = activation above about 40%; inconclusive = about 15% to 40%; inactive = below about 15%; also: compound concentration not given in the record; the text of the record calls up to 30% inactive
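Agonist mode: compounds alone added to overnight-plated D2 PathHunter cells for 90 min at 37 C, with 57 uM final dopamine (EC100) defining full response. Beta-arrestin recruitment detected by chemiluminescent reagent, read after 1 h at ambient temperature.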
PINK1 expr mod = PINK1 expression modulation | PINK1 immunofluorescence, high-content cytometry, 24 h | Potency, µM (doses to about 76.6 µM), without a hit: top-dose activation (PINK1 increase), actives largely listed as activators | hit rate 0.2% among 410,000; active = well fitted activation curve with a large enough effect; inconclusive = small, poorly fitted or top-dose-only effect; inactive = flat fitted curve, though single readings scatter; cell line not stated here;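 also: potency is read from the fitted curve at half-maximal effect; % of control where 0% means no effect; nearly all actives have a fitted effect of over 65% in size; a mitochondrial uncoupler was the plate control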
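A stable cell line was treated with compounds at 5 concentrations for 24 hours, with CCCP as control. PINK1 levels and mitochondrial localization were measured by immunofluorescence with mitochondrial, cell and nuclear markers after fixation, read by laser-scanning cytometry.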
TRPML1 agonist = human mucolipin-1 channel agonism; Q9GZU1; TRPML1-expressing cells, Ca2+ dye fluorescence, FDSS; host cell line not named in the record; reference of the full effect not given here; activation, % (concentration not given with the values); hit rate 0.12% among 410,000; AID 624414; in the data active = activation above about 50%; inconclusive = about 30% to 50%; inactive = below about 30%; also: 0% is about no effect; the text of the record puts the active cut at 80%
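Calcium fluorescence on an FDSS kinetic reader gave the read-out. Tet-induced TRPML1-DL cells were plated overnight, dye-loaded (Ca8 with quencher, 45-90 min, room temperature, dark), then read 110 s after compound addition, and again 110 s after 4uM final 54-4 (EC80).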
* marks the source's active call; other numbers are inactive results; ? = inconclusive; / = no result given; & = joins results of further samples; [ ] = remark or other dose.

Sample of the layout (six entries):
SMILES	CtBP-E1A blk	Six1-Eya2 blk	TRPML1 inh	D2 ag	PINK1 expr mod	TRPML1 agonist
Cc1cc(S(=O)(=O)N2CCOCC2)ccc1OCC(=O)N1CCOCC1	17	1	19	-4.1	1.0%	-1.2
Cc1cccc(-n2c(SCC(=O)O)nc3sc4c(c3c2=O)CCCC4)c1	15	0	20	-6.4	1.2%	-0.2
CCOc1nc(-c2ccccc2)ccc1-c1noc(-c2ccc(OC)c(OC)c2)n1	-2	-2	4	-2.1	7.8%	0.8
O=C(NC(=S)N1CCN(Cc2ccc3c(c2)OCO3)CC1)c1ccc(Cl)cc1	-7	-11	-2	-2.2	3.2%	0.6
COc1ccc(C(=O)Nc2ccccc2NC(=O)c2ccco2)c(OC)c1	/	8	26	-5.5	2.1%	0.9
OC(c1ccc(-c2ccccc2)cc1)c1ncc(-c2ccc(C(F)(F)F)cc2)[nH]1 (stereo not drawn)	-8	-10	-9	1.6	-1.6%	2.2

Results, from the start:
SMILES	CtBP-E1A blk	Six1-Eya2 blk	TRPML1 inh	D2 ag	PINK1 expr mod	TRPML1 agonist
Cc1cc(S(=O)(=O)N2CCOCC2)ccc1OCC(=O)N1CCOCC1	17	1	19	-4.1	1.0%	-1.2
Cc1cccc(-n2c(SCC(=O)O)nc3sc4c(c3c2=O)CCCC4)c1	15	0	20	-6.4	1.2%	-0.2
CCOc1nc(-c2ccccc2)ccc1-c1noc(-c2ccc(OC)c(OC)c2)n1	-2	-2	4	-2.1	7.8%	0.8
O=C(NC(=S)N1CCN(Cc2ccc3c(c2)OCO3)CC1)c1ccc(Cl)cc1	-7	-11	-2	-2.2	3.2%	0.6
COc1ccc(C(=O)Nc2ccccc2NC(=O)c2ccco2)c(OC)c1	/	8	26	-5.5	2.1%	0.9
OC(c1ccc(-c2ccccc2)cc1)c1ncc(-c2ccc(C(F)(F)F)cc2)[nH]1 (stereo not drawn)	-8	-10	-9	1.6	-1.6%	2.2
COC(=O)C1=C[C@@H](C(=O)OC)[C@@H]2C3=C(C(=O)[C@]2(CC(C)C)NC(=O)c2ccccc2)[C@H](C)n2c(=O)n(-c4ccccc4)c(=O)n2[C@@H]3C1	6	-10	-19	-0.7	0.5%	-0.2
O=C(CCCn1c(=O)c2cccn2c2ccc(F)cc21)NCCc1ccccc1	/	/	-4	/	0.7%	4.5
CN(C)C(=O)Cn1c(SCC(=O)NC2CCCCC2)nc2ccccc21	8	7	6	3.3	?	0.7
COc1ccc(-c2nc3cc(C)ccn3c2NCC2CCCO2)cc1OC (stereo not drawn)	5	4	1	0.5	-1.6%	-0.4
COc1ccc(-n2nnnc2/C=C\Nc2ccccc2C(=O)c2ccccc2)cc1	-12	-13	25	-2.3	5.7%	0.6
CCOc1cccc2sc(N(CCCN(C)C)C(=O)c3ccc(S(=O)(=O)N(CC)Cc4ccccc4)cc3)nc12	?	-30	4	-1.6	-1.9%	-0.5
Cc1ccccc1Nc1scc(-c2ccc(Cl)cc2)[n+]1-c1ccccc1C	-23	?	6	-4.3	18%	4.9
Cc1ccc(OCC(=O)NNC(=O)CSc2nnc(-c3ccc(C)cc3)n2C)cc1	11	3	-17	1.5	1.1%	1.6
NNC(=O)Cn1c(-c2ccccc2)cc2ccccc21	16	-5	-17	0.0	0.6%	-0.1
c1ccc(CNc2ncnc3sc4c(c23)CCC4)nc1	-5	3	17	1.5	-1.2%	2.3
CCC(C)(C)NC(=O)CN(C(=O)CNS(=O)(=O)c1ccccc1)c1ccc2c(c1)OCCO2	-13	-3	8	-0.8	2.0%	-0.5
Nc1c(C=C2C=CC(=O)C=C2)c(=O)nc2sc(CC(=O)N3CCOCC3)nn12	-6	-6	24	-1.1	3.4%	0.0
Cc1ccc(CNC(=O)CNC(=O)c2ccco2)cc1	-20	0	-12	-0.5	-2.0%	-0.5
CCN1C(=O)NC2=C(C(=O)c3ccccc32)C1c1ccccc1F (stereo not drawn)	-3	-15	1	-3.9	-2.4%	-0.1
O=C(O)CSc1cc(C(=O)c2ccccc2O)cn2c(=O)c3c(-c4ccccc4)csc3nc12	/	-15	28	-0.9	1.2%	2.3
Cc1nc(SCCO)c([N+](=O)[O-])[nH]1	5	-9	2	-4.9	-0.6%	0.5
Cc1nc(N)sc1C(=O)N/N=C/c1c[nH]c2ccccc12	3	-25	-11	-1.1	-2.1%[38.3 µM]	0.5
COc1ccc(C(C)=O)cc1Cn1c(C)c(C(=O)NCc2ccc(C(C)C)cc2)sc1=O	-5	-12	/	4.3	-1.2%	-0.1
COc1ccc(NC(=O)c2cncc(Br)c2)c(S(=O)(=O)N2CCOCC2)c1	-1	-5	2	0.2	-0.8%	0.0
O=C(COc1cccc2ccccc12)NNC(=O)[C@@H]1CCCC[C@@H]1C(=O)O	3	9	-5	-1.0	-2.0%	-0.2
CCOc1ccc(NC(=O)CN(Cc2ccccc2)S(=O)(=O)c2ccc(Cl)cc2)cc1	/	/	32	/	7.7%	3.7
COc1cc(/C=N/Nc2ccccc2[N+](=O)[O-])cc(OC)c1O	0	0	2	15	5.2%	0.3
CCn1c(CNC(=O)c2ccc(OC)cc2)nnc1SCC(=O)Nc1ccc(F)cc1	/	/	-23	/	-0.6%	-0.7
CC1=C(C(=O)Nc2cccc(C(=O)NC(C)c3ccccc3)c2)SCCO1 (stereo not drawn)	-1	14	5	-2.7	-0.9%	-1.2
COc1ccc(NC(=O)CSc2n[nH]c(-c3ccccn3)n2)cc1	-79*	-92*	-6	-2.6	-1.1%	-0.4
Cn1cccc1-c1cc(C(=O)N/N=C/c2cccc(O)c2)[nH]n1	16	-27	9	-0.9	-1.4%	1.2
COc1cc(CCc2ccc3c(c2)OCO3)oc(=O)c1	4	0	-4	-0.3	0.3%	-0.3
CC(=O)c1cccc(NC(=O)CN2C(=O)NC3(CCCCCCC3)C2=O)c1	8	6	0	-0.8	4.6%[38.3 µM]	0.5
Cc1ccc(OCc2nc(-c3cccnc3)no2)cc1C	32	19	5	1.9	0.4%	4.4
C/C(=N/NC(=O)c1nnn(-c2nonc2N)c1CSc1ccc(C)cc1)c1ccncc1	4	1	20	0.3	0.8%	-1.2
CCCNC(=O)CC(NS(=O)(=O)c1ccc(NC(C)=O)cc1)C(C)C (stereo not drawn)	9	3	-4	-1.7	1.1%	-0.6
COc1ccc(NC(=O)Cn2c(=O)n(Cc3nc(-c4ccccc4)no3)c(=O)c3cc4c(cc32)OCO4)cc1Cl	/	/	-29	/	-0.4%	2.4
Clc1cccc(-c2cccc3nccn23)c1	8	-2	-8	-2.9	0.6%	0.1
COc1ccc(S(=O)(=O)N2CCOC23CCN(S(=O)(=O)c2ccc(C)cc2)CC3)cc1	-14	12	-5	-1.3	-1.8%	3.6
CN(C(=O)c1cc(COc2ccc(F)cc2Cl)on1)C1CCOC1 (stereo not drawn)	4	0	-2	0.4	2.0%	-0.6
Cc1ccc(CN2C3CCCC2CC(NC(=O)c2ccc(F)cc2)C3)cc1 (stereo not drawn)	-5	-7	14	-1.6	2.9%	0.7
CCOC(=O)N1CCN(S(=O)(=O)N2CCCC(C(=O)NCCc3ccc(OC)c(OC)c3)C2)CC1 (stereo not drawn)	4	1	-3	2.1	1.3%	-0.3
Cc1ccc(SCC(=O)OCC(=O)NCc2cccs2)cc1	5	7	-18	-2.9	-1.3%	2.0
COCCCNC(=O)c1cc(-c2ccc(OC)cc2)nc2n[nH]c(-c3ccc(Cl)cc3)c12	/	/	-14	/	2.8%	0.0
Cc1cccc(CNC(=O)c2sc(=O)n(Cc3ccccc3C)c2C)c1	-5	1	/	2.9	-0.5%	1.0
CCOC(=O)c1[nH]ncc1CN1CCN(Cc2ccccc2)C(CCO)C1 (stereo not drawn)	/	3	18	1.5	0.1%	2.8
CN1C(C)(C)CC(=NO)CC1(C)C	1	5	-15	-2.9	-0.9%	0.5
CCOC(=O)N1CCN(C(=O)C(C)N(c2ccc(Oc3ccccc3)cc2)S(C)(=O)=O)CC1 (stereo not drawn)	-3	10	1	-0.3	1.7%	-0.6
FC(F)(F)c1cccc(N2CCN(c3ncnc4c3nc3n4CCCC3)CC2)c1	/	/	23	/	0.8%	0.4
O=C(c1ccc(=O)[nH]c1)N1CCN(S(=O)(=O)c2cc(C(F)(F)F)ccc2Cl)CC1	-10	-4	13	-1.4	0.0%	-1.3
Cc1ccc(N2CC(NC(=O)c3ccco3)CC2=O)cc1C (stereo not drawn)	/	/	-6	/	0.1%	0.3
Cc1ccc(Cn2ccn(CC(=O)Nc3c(C)cc(C)cc3C)c(=O)c2=O)cc1	/	/	19	/	0.6%	1.5
CC(=O)N1CCc2c(sc3c2c(=O)n(-c2ccccc2Cl)c(=O)n3Cc2cccc(C)c2)C1	/	/	-12	/	1.1%	0.2
CCc1ccccc1NC(=O)c1cc(-c2ccc3c(c2)OCO3)on1	13	-4	-1&-9	-3.9	3.3%&2.2%	-0.3&-0.5
CC(NC(=O)c1cccc(F)c1)C(c1cccs1)N1CCN(C)CC1 (stereo not drawn)	11	4	-5	2.6	0.9%[38.3 µM]	1.0
O=C(CCCn1c(SCC(=O)NCC2CCCO2)nc2ccccc2c1=O)NCC1CCCO1 (stereo not drawn)	7	6	21	-2.1	25%[38.3 µM]	-0.6
CN(C)c1ccc(C2CC(c3c(O)n(C4CCCCC4)c(=O)[nH]c3=O)=Nc3ccccc3S2)cc1 (stereo not drawn)	/	/	-1	/	1.5%	2.6
CCOc1ccc(C(=O)Nc2cccc(-c3nc4cccnc4o3)c2)cc1Cl	0	-1	-19	-0.3	-1.4%[38.3 µM]	0.4
O=[N+]([O-])c1cc(F)cc(F)c1Nc1cc(F)cc(F)c1	?	?	-2	3.1	3.3%	0.5

(continued)
SMILES	CtBP-E1A blk	Six1-Eya2 blk	TRPML1 inh	D2 ag	PINK1 expr mod	TRPML1 agonist
COc1ccccc1CNC(=O)COC(=O)C1CC1	/	8	-10	-0.2	-0.4%	-0.4
COC(=O)c1ccc(-n2c(C)cc(C(=O)COC(=O)C3=COCCO3)c2C)cc1	-12	-4	-13	2.9	?	2.4
O=C(NC(=S)Nc1nc(-c2ccc(Br)cc2)cs1)c1ccco1	3	-2	1	0.8	13%	0.3
CC(C)OC(=O)c1ccc(N2CCN(c3ccccc3F)CC2)nc1	/	22	-20	4.5	4.0%	0.7
CC1CN(C(=O)N2CCC(C(=O)NCc3ccco3)CC2)c2ccccc2O1 (stereo not drawn)	/	/	-16	/	-0.3%	-0.4

Only PINK1 expr mod (2 entries from above):
structure	PINK1 expr mod
COC(=O)c1ccc(-n2c(C)cc(C(=O)COC(=O)C3=COCCO3)c2C)cc1	?
O=C(NC(=S)Nc1nc(-c2ccc(Br)cc2)cs1)c1ccco1	13%
